Menin-MLL FL inh = displaces fluorescein MLL peptide from human menin; Fluorescence polarization, fluorescein-MLL peptide displacement from menin; FP activity change, % at 61.4 µM; 290,000 tested, under 10 active; inconclusive = falling polarisation curve, or a change in total fluorescence; inactive = total fluorescence flat and polarisation flat or rising; no compound was filed as active; the % refers to the polarisation; negative = inhibition;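 also: % of control where 0% means no effect; inhibitors lower the polarisation; unlabelled MLL peptide was the positive control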
TRPML1 blocker = human mucolipin-1 channel inhibition; Q9GZU1; AID 624415; activity change, negative = inhibition, % (no concentration beside the values); TRPML1-inducible cells, Ca2+ dye fluorescence, FDSS; active compounds read low; inhibition of EC80 agonist-evoked calcium signal; actives 0.02% (n = 390,000); in the data active means activity change below about -50%; inconclusive means about -30% to -50%; inactive means above about -30%;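 also: stimulus is agonist 54-4 at its EC80 concentration; % is scaled to controls: 0 for no effect and ±100 for the full control effect; compound concentration not given in the record; the text of the record puts the active cut at -80%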
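Calcium fluorescence in TRPML1-DL cells induced overnight with Tet: a 110 s read after compound pin addition, then a 110 s antagonist read after challenge with 54-4 at 4 uM final (EC80).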
Sfp PPTase inh = inhibitors of Bacillus subtilis Sfp phosphopantetheinyl transferase; Biochemical Sfp PPTase activity, qHTS; Potency, µM, inactives show max response, negative = inhibition, hits mostly inhibitors; actives 3.5% (n = 310,000); active = well fitted inhibition curve with a large enough effect; inconclusive = small, poorly fitted or top-dose-only effect, or another doubt; inactive = no such curve, though single readings can be large or run the other way;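 also: the enzyme is Sfp with the accession as filed and its product quenches rhodamine fluorescence; potency is read from the fitted curve at half-maximal effect; 0% = enzyme reaction without inhibitor and -100% = no enzyme wells; top concentration of the series not given in the record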
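Compounds were incubated with enzyme (final 15 nM) for 15 min at room temperature before substrate addition started the reaction. Fluorescence at 525 nm excitation, 598 nm emission was recorded immediately and after 30 minutes.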
TRPML1 agonist = human mucolipin-1 channel agonism; activation, % (test concentration not listed); actives 0.12% (n = 410,000); TRPML1-expressing cells, Ca2+ dye fluorescence, FDSS; host cell line not named in the record; reference of the full effect not given here; AID 624414; Q9GZU1; in the data active = activation above about 50%; inconclusive = about 30% to 50%; inactive = below about 30%; also: 0% is about no effect; the text of the record puts the active cut at 80%
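In this qHTS format, compounds were pin-transferred onto Ca8-dye-loaded TRPML1-DL cells induced with Tet overnight, and intracellular Ca2+ fluorescence was recorded kinetically for 110 s after a 10 s baseline. A subsequent 4uM final 54-4 (EC80) addition followed by a second 110 s read served as the antagonist phase.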
TRPV1 potentiator = potentiators of human vanilloid receptor 1 (TRPV1) | TRPV1-expressing cells, Fluo-8 calcium influx, capsaicin EC20 potentiation; host cell line not named in the record; control for the full effect not named in the record | potentiation, % at 8.33 µM | actives 0.02% (n = 320,000) | Q8NER1; active means potentiation above 80%; inconclusive means 30% to 80%; inactive means below 30%; also: 0% is about no effect
Target sequence (Q8NER1 whole entry, looked up): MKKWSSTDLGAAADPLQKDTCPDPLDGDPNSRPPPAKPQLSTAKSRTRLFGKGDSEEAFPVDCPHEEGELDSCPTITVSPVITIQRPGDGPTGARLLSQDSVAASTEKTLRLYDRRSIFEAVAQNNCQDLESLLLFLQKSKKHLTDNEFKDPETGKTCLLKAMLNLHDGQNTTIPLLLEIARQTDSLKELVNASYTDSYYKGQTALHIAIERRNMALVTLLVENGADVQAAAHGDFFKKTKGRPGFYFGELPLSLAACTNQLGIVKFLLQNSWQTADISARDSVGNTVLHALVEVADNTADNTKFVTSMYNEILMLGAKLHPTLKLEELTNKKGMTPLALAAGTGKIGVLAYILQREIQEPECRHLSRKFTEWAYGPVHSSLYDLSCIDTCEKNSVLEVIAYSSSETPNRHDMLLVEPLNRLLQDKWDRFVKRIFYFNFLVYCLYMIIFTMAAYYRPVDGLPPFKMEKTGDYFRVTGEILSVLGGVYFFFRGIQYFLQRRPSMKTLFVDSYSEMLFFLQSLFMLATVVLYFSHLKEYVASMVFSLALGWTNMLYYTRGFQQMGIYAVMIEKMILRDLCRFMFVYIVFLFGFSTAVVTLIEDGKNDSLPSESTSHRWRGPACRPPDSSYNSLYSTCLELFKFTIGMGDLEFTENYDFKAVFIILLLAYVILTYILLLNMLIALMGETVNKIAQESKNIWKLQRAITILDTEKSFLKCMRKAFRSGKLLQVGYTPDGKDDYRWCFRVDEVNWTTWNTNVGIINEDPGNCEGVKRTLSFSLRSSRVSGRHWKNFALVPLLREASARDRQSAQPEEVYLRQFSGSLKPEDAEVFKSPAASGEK
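Fluo-8 calcium influx in TRPV1-expressing cells, kinetic read (ex 480/em 520 nm). Compound added and read 3 min for agonist activity, followed by capsaicin at EC20 final and 2 min further read for enhancement.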
PINK1 expr mod = changes PINK1 expression | PINK1 immunofluorescence, high-content cytometry, 24 h | Potency, µM (series often up to 76.6 µM), inactives show at the top dose activation (PINK1 increase), actives largely listed as activators | actives 0.2% (n = 410,000); active = well fitted activation curve with a large enough effect; inconclusive = small, poorly fitted or top-dose-only effect; inactive = flat fitted curve, though single readings scatter; cell line not stated here;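 also: potency is read from the fitted curve at half-maximal effect; % of control where 0% means no effect; nearly all actives have a fitted effect of over 65% in size; a mitochondrial uncoupler was the plate control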
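Compound titrations (5 concentrations, 24 h) on a stable cell line; DMSO and CCCP controls. Endpoint: fixed-cell PINK1 immunofluorescence with mitochondrial, cell and nuclear markers, scanned by microplate cytometer.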
ClpP mod = qHTS Assay for Activators of ClpP; purified B. subtilis ClpP, FRET peptide cleavage, 20 min; Potency, µM (top dose mostly 57.5 µM), for the others: at the highest dose activity change, negative = active; actives 1.9% (n = 340,000); AID 651965, 2013; active = well fitted falling curve with a large enough effect; inconclusive = small, poorly fitted or top-dose-only effect; inactive = no such curve, though single readings can be large or run the other way; also: potency is read from the fitted curve at half-maximal effect; the source files actives as falling curves though it sought activators and does not explain the sign; nearly all actives have a fitted effect of over 65% in size; many hits overshoot -100%
Target sequence (P80244 whole entry, looked up): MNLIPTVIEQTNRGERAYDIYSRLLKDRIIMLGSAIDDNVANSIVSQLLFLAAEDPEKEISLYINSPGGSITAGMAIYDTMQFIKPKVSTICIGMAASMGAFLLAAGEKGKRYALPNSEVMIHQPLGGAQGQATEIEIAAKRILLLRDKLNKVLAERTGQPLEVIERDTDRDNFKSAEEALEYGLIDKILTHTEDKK
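FRET quenching reversal measured ClpP activation: 10 microg/mL B. subtilis ClpP at pH 8 with the FRET-FV decapeptide, read at 430 nm after 320 nm excitation. The 20-min minus 0-min signal was scaled between DMSO/no-enzyme wells and ADEP (5.8 microM final).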
Starred values were filed as active, the others as inactive; ? = inconclusive; / = not tested or not shown; & = joins results of further samples; [ ] = another dose, or the depositor's remark.

Under each structure – Menin-MLL FL inh	TRPML1 blocker	Sfp PPTase inh	TRPML1 agonist	TRPV1 potentiator	PINK1 expr mod	ClpP mod
> CCCc1nnc(NC(=O)CCC(=O)N2CCN(c3ccccn3)CC2)s1
    1.4	-3	17%	0.7	-5	0.9%[38.3 µM]	?
> Cc1cccc2cc3ccccc3nc12
    /	21	/	1.1&4.5	/	3.2%&1.3%	3.8%
> COc1ccc(OC)c(/C=N/NC(=O)c2ccncc2)c1
    -2.8	26	0%	0.4	16	0.5%	-0.7%
> Cn1cccc1C(=O)NC(=O)COC(=O)CNC(=O)c1ccc(Cl)cc1Cl
    1.7	5	-5%	-0.4	-2	0.6%	/
> CCC(Oc1ccc(Br)cc1Cl)C(=O)Nc1nnc(C2CC2)s1 (configuration not stated)
    /	18	11%	0.1	8	0.5%	1.7%
> CC1CCCCC1NC(=O)CSc1nnc(-c2ccccc2)n1N (configuration not stated)
    1.6	-5	6%	-0.1	0	-0.5%	-1.8%
> Cc1nn(CC(=O)c2cccc(Cl)c2)c(C)c1[N+](=O)[O-]
    19	6	11%	0.0	9	0.4%	/
> COc1cc(CNCc2ccccn2)ccc1OCc1ccc(Cl)cc1Cl
    17	30	?	1.7	-11	3.7%	-1.5%
> COc1ccc([N+](=O)[O-])cc1NC(=O)CSCc1ccccc1C
    2.7	15	16%	4.5	-6	0.8%	-2.4%
> CC(Sc1ccc2ccccc2c1)C(=O)NC(N)=O (configuration not stated)
    3.0	13	7%	-0.8	-21	0.0%	/
> CN1c2ccccc2Oc2nnc(Cl)cc21
    5.5	-2	20%	1.6	4	-0.3%	/
> COc1ccccc1Nc1cc(C)nc2c(C)ccc([N+](=O)[O-])c12
    2.6	6	-9%	2.5	-2	?	-2.4%
> CCOC(=O)c1ccc(NC(=O)c2ccc(NS(C)(=O)=O)cc2)cc1
    -1.3	81	8%	0.6	-18	/	-7.8%
> CC(CC12CC3CC(CC(C3)C1)C2)NCc1ccccc1O (configuration not stated)
    0.2	-18	0%	0.0	6	0.8%	-0.3%
> Oc1ccccc1CN1CCC(C(O)(c2ccccc2)c2ccccc2)CC1
    4.8	4	-17%	0.7	-1	1.9%	-0.3%
> O=C(N/N=C/c1ccc2c(c1)OCO2)c1ccc(Br)o1
    5.0	-3	-27%	-0.5	4	11%	-6.7%
> O=C(NCC1CCCO1)c1cn(-c2ccccc2)nc1-c1ccccc1 (configuration not stated)
    -3.2	-4	4%	-0.7	-9	-0.7%	0.6%
> O=C1c2ccccc2NC2(CCCC2)N1O
    2.0	29	?	0.4	-16	0.3%	-2.5%
> CCCCCCCCCCN(CCCCCCCCCC)c1ccc(/C=C/c2ccnc3ccccc23)cc1
    /	/	/	0.6	/	1.6%	0.8%
> CC(C)=N/N=C1/NC(=O)C(Cc2ccccc2)S1 (configuration not stated)
    1.8	13	5%	1.0	-24	5.6%	-0.9%
> COc1ccccc1/C=C/C(=O)NC(=S)Nc1ccccn1
    1.0	4	0%	-0.2	5	-0.6%	-0.9%
> CC1(c2ccc(OC(F)F)cc2)NC(=O)N(CC(=O)Nc2ccc3[nH]c(=O)[nH]c3c2)C1=O (configuration not stated)
    /	13	/	0.6	81*	0.9%	/
> CCOC(=O)N/N=C(\C)c1ccc(Br)cc1
    -4.1	17	-16%	-0.3	-4	3.5%[38.3 µM]	-0.3%
> CCCN(CCC)S(=O)(=O)c1cc2c3c(c1)CCN3C(=O)CC2
    6.2	19	19%	-0.7	2	-1.5%	7.1%
> O=C(CN(Cc1ccccc1)C(=O)c1csnn1)NCc1ccc2c(c1)OCO2
    /	8	7%	-0.9	24	-1.5%	-1.7%
> COc1ccc(C(=O)N2CCC3(CCN(Cc4ccc(C#N)cc4)CC3)CC2)cc1
    -0.3	/	7%	/	/	0.3%	/
> CCOC(=O)N1CCN(c2ncnc3c2[nH]c2ccc(OC)cc23)CC1
    3.7	-9	3%	2.8	1	0.0%	25µM*
> Cc1[nH]c(=S)c(C#N)c(-c2ccco2)c1C(=O)N(C)C
    9.1	-13	10µM*	1.6	8	0.2%	-0.6%
> CCOC(=O)/C(C#N)=C\c1c(C)cc(C)c(COC(C)=O)c1C
    4.2	-2	13%	0.1	-4	0.2%	0.1%
> Cc1ccc(OCC(=O)Nc2cccc(-c3nnc(-c4ccccc4)o3)c2)cc1
    -0.1	24	-14%	0.4	15	8.2%	19%
> Cc1noc(C)c1COC(=O)C1COc2ccccc2O1 (configuration not stated)
    0.8	13	7%	-1.1	0	0.7%	-0.9%
> Cn1c(CCN2CCOCC2)nc2cc(NC(=O)c3cccs3)ccc21
    2.3	57	19%	-0.6	-1	-0.6%	/
> CCC(=O)N1CCCC(C)(C(=O)Nc2ccc3scnc3c2)C1 (configuration not stated)
    /	/	/	-0.3	/	1.3%	-4.0%
> CC(C(=O)NCC1CCCCC1)N1CCc2ccccc2C1 (configuration not stated)
    0.4	-16	19%	-0.6	-20	3.4%	/
> Cc1nc([N+](=O)[O-])c(Br)n1Cc1ccccc1
    2.1	5	3%	4.3	-6	11%	3.6%
> O=c1oc(/C=C/c2ccccc2)nc2sc3c(c12)CCC3
    2.4	5	-4%	0.1	9	17%	1.0%
> COc1ccc(C(=O)NCCn2cc(SCC(=O)Nc3cccc(C)c3)c3ccccc32)cc1
    /	-3	/	4.2	/	0.2%	-1.4%
> O=C(Nc1nc(-c2ccccn2)cs1)c1cc2ccccc2o1
    8.3	-8	26%	-0.6	2	6.1%	/
> Cc1ccc(NC(=O)c2nc[nH]c2C(=O)NCCCCNC(=O)c2[nH]cnc2C(=O)Nc2ccc(C)cc2)cc1
    /	18	/	-0.6	/	5.5%	1.6%
> C[C@@H]1NC(=O)c2cc([N+](=O)[O-])cc(I)c2NCCCC[C@@H](C(N)=O)NC(=O)[C@H](CC(N)=O)NC1=O
    1.7	1	?	0.3	0	2.8%	1.6%
> Cc1nc2c(-c3ccc(F)cc3)c(C)nn2c(C)c1CCC(=O)Nc1ccccc1
    -2.1	25	-6%	0.7	-10	5.4%	5.2%
> Clc1ccc(N/N=C/c2cccs2)nn1
    1.7	1	-27%	2.4	-1	3.9%	/
> Cc1ccc(S(=O)(=O)NCC(=O)OCC(=O)NC(=O)c2cccn2C)cc1
    -4.0	24	1%	0.2	?	2.6%[38.3 µM]	-2.4%
> Cc1ccc(CNC(=O)C2CC(=O)N(c3ccc(OCC(=O)N4CCCC4)cc3)C2)cc1 (configuration not stated)
    5.2	7	-10%	-0.3	-4	-1.0%	-2.1%
> Cc1ccc2c(CNCCc3ccccc3)c(C(=O)O)n(Cc3ccccc3C)c2c1
    /	32	/	2.4	/	-0.4%	-18%

Record cards (already shown). Screens in order: Menin-MLL FL inh | TRPML1 blocker | Sfp PPTase inh | TRPML1 agonist | TRPV1 potentiator | PINK1 expr mod | ClpP mod
Listed for O=C(Nc1nc(-c2ccccn2)cs1)c1cc2ccccc2o1 → 8.3 | -8 | 26% | -0.6 | 2 | 6.1% | /
Listed for COc1ccc(C(=O)NCCn2cc(SCC(=O)Nc3cccc(C)c3)c3ccccc32)cc1 → / | -3 | / | 4.2 | / | 0.2% | -1.4%

Next section:
Under each structure – Menin-MLL FL inh	TRPML1 blocker	Sfp PPTase inh	TRPML1 agonist	TRPV1 potentiator	PINK1 expr mod	ClpP mod
> Cc1cc(Cl)ccc1OCC(=O)OCC(=O)N(CC(C)C)c1c(N)n(Cc2ccccc2)c(=O)[nH]c1=O
    /	-13	/	3.3	?	8.9%	/
> C=C1C=C(C(F)F)n2ncc(C(=O)N3CCN(c4ccccc4)CC3)c2N1
    /	/	/	-0.7	/	8.1%	1.8%
> O=C(NC1=NCCS1)c1ccccc1Br
    /	-8	/	-0.3	/	-0.2%	/
> CCCCCCN(C(=O)CCCCCN1C(=O)NC(c2ccc(-c3ccccc3)cc2)C(C(=O)OCc2ccccc2)=C1C)C(C(=O)NCCCC)c1ccc(OCC(=O)OC)c(C(=O)OC)c1 (configuration not stated)
    -0.5	/	11%	/	19	/	/
> S=C(NCCc1ccccc1)NC1CCC(NC(=S)NCCc2ccccc2)CC1 (configuration not stated)
    8.0	-6	20%	-0.5	-5	14%	0.5%
> COc1ccccc1NC(=O)Cc1nnc(SCC(=O)NC2CCCCC2)n1C
    -26	6	1%	0.4	-24	-0.6%	/
> N/C(Cc1ccc(Cl)cc1Cl)=N\OC(=O)c1cccs1
    -1.0	7	8%	0.5	7	3.8%	1.2%
> Cc1ccccc1CSc1cn(CC(=O)N2CCCCCC2)c2ccccc12
    /	4	/	0.9	/	1.8%	0.7%
> CC(C)c1nnc(NC(=O)c2cccs2)s1
    1.8	-8	2%	0.1	-3	0.9%	1.6%
> Cn1cnnc1SCC(=O)Nc1ccc(S(=O)(=O)N2CCCC2)cc1
    4.2	5	10%	2.4	-8	-2.3%[38.3 µM]	-1.2%
> CC1(c2nnc(-c3ccc(Cl)cc3)o2)CC(c2cccnc2)=NO1 (configuration not stated)
    /	4	/	0.6	/	1.1%	-2.5%
> CC1CCCC(NC(=O)COC(=O)c2ccc3c(c2)OCCO3)C1C (configuration not stated)
    /	9	/	5.2	/	1.3%	-6.7%
> COc1ccc2c(c1)c(C(=O)CN1CCN(Cc3ccccc3)CC1)c(C)n2C
    -1.3	-3	-14%	-0.4	6	0.0%	/
> O=C1NC2(CCCC2)C(=O)N1CCS(=O)(=O)Oc1ccccc1
    -7.4	-17	24%	-0.5	-6	-1.1%	/

Screens deposited in PubChem BioAssay by National Center for Advancing Translational Sciences (NCATS).
